Source: PubChem BioAssay (PCMD)
Calb biofilm kill – mixture kills Candida albicans biofilm cells | C. albicans biofilm persisters + clotrimazole, fluorescence viability; primary screen in compound mixtures of four per well | inhibition, % at 7.6 µM | hit rate 0.02% among 120,000;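 active = inhibition above 30.3% in the primary screen of four-compound pools, then above 30% when the compound was retested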;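 note: compounds exposed to preformed 24 h biofilms for 48 h; the number belongs to the whole pool; some results filed as inactive read as strong as hits; inactives centre near 12; 0% = biofilm with clotrimazole alone and 100% = kill control; retested singly at about 60 µM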
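Test system: C. albicans biofilms. Buffer or medium: RPMI/MOPS medium, pH 7.0. Timing: 48 h compound exposure at 37 °C. Technique: Alamar Blue fluorescence. Evaluation: percent inhibition of biofilm viability.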
* hit, by the source's call; & = joins results of further samples.

SMILES | Calb biofilm kill
CCCN(CCC)CC(O)Cn1cc(/C=C/C(=O)c2cccs2)c2ccccc21 (centres undefined) | 1
NS(=O)(=O)c1ccc(NC(=S)NC(=O)c2ccco2)cc1 | 25&15
CC(Oc1ccccc1)C(=O)NC1=NCCS1 (centres undefined) | 15
CC(C)=NOC(=O)c1ccc(-c2ccccc2)cc1 | 5
Nc1ncnc(N2CCOCC2)c1N | 12
Cc1nnsc1C(=O)N1CCC(C(=O)c2ccccc2)CC1 | 8
O=[N+]([O-])c1ccc(N2CCN(S(=O)(=O)c3ccccc3)CC2)cc1NCC1CCCO1 (centres undefined) | 18
CCOC(=O)C1=C(C)Nc2sc(C(=O)c3ccc(F)cc3)c(N)c2C1c1ccc(C(=O)OC)cc1 (centres undefined) | 7
Cc1cc(C(=O)N/N=C/c2ccccn2)n[nH]1 | 16
O=C1CCC(/C=C/c2ccccc2)=NN1Cc1ccc(F)cc1 | 8
O=C(NCc1ccccc1)c1nc[nH]c1C(=O)NCc1ccccc1 | 3
CC(Sc1nnc2c(n1)C1CCC2(C)C1(C)C)C(=O)Nc1ccccc1 (centres undefined) | 4
Cc1ccc(/C=N\NC(=O)Cc2cccn2C)o1 | 4
O=C(O)CN1C(=O)/C(=C\c2cn(CC(=O)N3CCOCC3)c3ccccc23)SC1=S | -1
COc1ccc(C)cc1NC(=O)c1ccc(OC(F)F)cc1 | 11
COc1ccc(C2C(C(=O)c3ccccc3)N3c4ccccc4C=CC3C2[N+](=O)[O-])cc1 (centres undefined) | 9
CCCC(=O)Nc1cc2c(cc1C(C)=O)OCCO2 | 15
COCCCNC(=O)Cn1nnc(-c2ccc(NC(=O)c3ccccc3F)cc2)n1 | 7
Cc1nc2ccccc2nc1CN1CCN(Cc2ccc(F)c(F)c2)C(CCO)C1 (centres undefined) | 11
CCOC(=O)c1ccc(N=C2SC(C(=O)Nc3ccc(C(=O)O)cc3)CC(=O)N2Cc2cccs2)cc1 (centres undefined) | 11
Cc1cc(C)nc(N2CCCC(C(=O)NCC(c3ccccc3)c3ccccc3)C2)n1 (centres undefined) | 19
COc1cc(CCCN2C(=O)C(=O)NC[C@@H]2c2ccccc2)cc(OC)c1OC | 9
CCCCNC(=O)c1ccccc1NC(=O)CCC | 9
COc1ccc2c(C=O)cn(C)c2c1 | 2
COc1ccc(N2CC(C(=O)NC3=NCCS3)CC2=O)cc1 (centres undefined) | 11
COc1cc(CN2CCc3ccccc3C2)ccc1O | 12
O=C(NC1CCCCC1)C1c2ccccc2C(=O)N1Cc1ccc2c(c1)OCO2 (centres undefined) | 12
Cc1cc(C(=O)N[C@H](c2ccccc2)[C@@]2(C)C[C@@H]2[C@@H](C)C(=O)Nc2ccc3ccccc3c2)no1 | 7
CCCNC(=O)c1c(Cl)cnn1-c1ccc(C)cc1 | 11
CCOC(=O)c1sc(/N=C/C2=C(O)CC(C)(C)CC2=O)c(C(=O)OCC)c1C | 15
Cc1ccc(OCC(=O)N(Cc2ccc(N(C)C)cc2)C2CCS(=O)(=O)C2)cc1C (centres undefined) | 22
CCS(=O)(=O)Nc1ccc(-c2cc(-c3ccccc3)c3cc(C)ccc3n2)cc1 | 16
Cc1ccc(C(=O)Nc2scc(-c3ccccc3)c2C(=O)O)o1 | 18
O=C(CNC(=S)N(Cc1ccccc1)Cc1cccs1)NCc1ccc(F)cc1 | 7
Cc1c(Cl)cccc1NC(=O)[C@@H](NC(=O)c1ccccc1Cl)C(C)C | 11
CCNS(=O)(=O)c1ccc(NC(=O)Cn2cc([N+](=O)[O-])cn2)cc1 | 14
Cc1cnc(C(=O)OCC(=O)N2CCc3ccccc32)cn1 | -5
Cc1cc(C)nc(Oc2ccc(Br)cc2Br)n1 | 20
N/C(=N\S(=O)(=O)c1ccc(Cl)cc1)N1CCOCC1 | 10
O=C(/C=C/c1ccco1)N/C(=C\c1ccccc1)C(=O)NCCc1nc2ccccc2[nH]1 | 11
O=C(CSc1ccc(-c2nc3ccccc3[nH]2)cn1)Nc1ccc(S(=O)(=O)N2CCCC2)cc1 | 10
CCOC(=O)c1c(CSC(=N)N)n(-c2ccc(Br)cc2)c2cc(Br)c(OC(C)=O)cc12 | 18
O=C(c1cccs1)N1CCN(Cc2ccccc2[N+](=O)[O-])CC1 | -8
CCNS(=O)(=O)c1cccc(C(=O)c2c(C)cc3ccccn23)c1 | 5
c1ccc(-c2nn3cnnc3c3ccccc23)cc1 | 0
CN(CC(=O)Nc1cccc(F)c1)C(=O)CCCc1cccs1 | 13
COc1cc(/C=C(\C#N)C(=O)Nc2ccc3c(c2)OCCO3)ccc1O | 14
CCc1ccc(NC(=S)Nc2cc(C(=O)O)ccc2N2CC3CC(C2)c2cccc(=O)n2C3)cc1 (centres undefined) | 26
COc1ccc(OC)c(NC(=O)C(CCS(C)(=O)=O)NC(C)=O)c1 (centres undefined) | 6
Cc1nn(C)c(C)c1/C=C(/C(=O)C(C)(C)C)n1cncn1 | 20
O=C(CSc1nc(O)cc(=O)n1-c1ccccc1)Nc1nc2ccccc2s1 | 33
CC(C)(C)C(=O)NC(=S)NNC(=O)C(c1ccccc1)c1ccccc1 | 6
COC(=O)c1ccc(NC(=O)c2cc(-c3ccccn3)nc3ccccc23)cc1 | 18
NS(=O)(=O)c1ccc(NC(=S)NC2CCCCC2)cc1 | 15
CC[C@H](C)[C@H](NC(N)=O)C(=O)NCCc1ccc(OC)cc1 | 11
O=C(c1cc2ccccc2oc1=O)N(Cc1cccs1)Cc1ccccc1Cl | 14
OCCN1CCN(CC(O)COCc2ccc3c(c2)OCO3)CC1 (centres undefined) | 10
O=C(N/N=C\C=C\c1ccc2c(c1)OCO2)c1ccc(F)cc1 | 7
CCCCOc1ccc(N(CC(=O)NCC2CCCO2)C(=O)CCC(=O)Nc2nccs2)cc1 (centres undefined) | 27
CC1CN(S(=O)(=O)c2ccc(C(=O)Nc3sccc3C(N)=O)cc2)CC(C)O1 (centres undefined) | 18
Further results follow.
SMILES | Calb biofilm kill
Fc1cccc(NC(=S)N2CCn3cccc3C2c2cccnc2)c1 (centres undefined) | 13
CN1N=C2c3ccccc3CCC2C1c1ccc(F)cc1 (centres undefined) | 29
C/C(=N/OCO/N=C(\C)c1ccc(F)cc1F)c1ccc(F)cc1F | 22
Cc1ccc(-c2ccccc2[C@@H]2C[C@H]3CN(C)C(=O)[C@]34CCCN24)o1 | 4
CC(C)(C)C(=O)NCCCNc1ccc([N+](=O)[O-])cc1 | -10
CCOc1ncccc1C(=O)N1CCCSC1=Nc1ccc(C(C)=O)cc1 | -10
CCc1ccccc1NC(=O)Cc1cn(C)c2ccccc12 | 20
COc1ccc(CNC(=O)C2CCN(S(C)(=O)=O)CC2)cc1 | 11
Cc1csc(SCC(=O)NCCc2ccc(Cl)cc2Cl)n1 | 25
O=C(CCNC(=O)c1ccc([N+](=O)[O-])cc1)Nc1ccc(N2CCOCC2)cc1N1CCOCC1 | 5
COc1ccc(C(CCNC(C)c2ccccc2)C(C)C)cc1 (centres undefined) | 10
Cn1ccnc1Sc1ccc(C=O)cc1[N+](=O)[O-] | -4
Fc1ccc(-c2n[nH]c(=S)n2/N=C/c2c[nH]c3ccccc23)cc1 | 35
COc1ccc([N+](=O)[O-])cc1NS(=O)(=O)c1ccc(C)cc1 | 12
COc1ccc(/C=N/Nc2cc(C)nc(-n3nc(C)cc3C)n2)c(OC)c1 | -3
O=C(Nc1nnc(SCc2ccccc2Cl)s1)c1cccc([N+](=O)[O-])c1 | 8
CC(C)c1ccc(NC(=O)C2CC(=O)Nc3nc4ccccc4n32)cc1 (centres undefined) | 14
Cc1c(C(=O)N/N=C/c2ccc(O)cc2)sc(=S)n1C | 10
CCOc1ccc(NC(=O)CSc2nnc(-c3ccoc3C)n2CC2CCCO2)cc1 (centres undefined) | 9
COc1ccc2c(=O)c(-c3ccc(OC)c(OC)c3)coc2c1 | -4
O=C(O)c1cccc2c1C(=O)c1ccccc1C2=O | 10
Brc1ccc(Nc2ncnc3[nH]ncc23)cc1 | 12
NC(=NC(=O)c1ccc(Cl)cc1)N1N=CCC1c1ccccc1 (centres undefined) | 16
O=C(CN1CCN(Cc2ccccc2)CC1)N/N=C/c1cccnc1 | 15
CCN(c1ccc(NS(=O)(=O)c2cc(Cl)ccc2Cl)cc1)C(C)C | 8
O=C(CSc1nnnn1-c1ccc(F)cc1)NNC(=O)c1ccco1 | 19
COc1cccc(CNC(=O)CC(NC(C)=O)c2ccccc2)c1 (centres undefined) | 12
N#Cc1c(-c2ccc(Cl)cc2)c2c([nH]c1=S)CCCC2 | 10
CCOC(=O)c1cc(NC(=O)CCC(=O)O)ccc1N1CCCCC1 | 23
COCCN=c1scc(-c2cc(OC)c(OC)c(OC)c2)n1/N=C/c1c(C)[nH]c2ccccc12 | 7
O=[N+]([O-])c1cc(Br)c(OCc2nnc(-c3ccccc3)o2)c(Br)c1 | 10
CSc1nc(-c2ccc(Cl)cc2)c(C#N)c(=O)n1C | 6
CCOC(=O)C1CCN(C(=O)C(CC)c2ccccc2)CC1 (centres undefined) | 6
CCOC(=O)C1C(=O)C=C(/C=C/c2ccc(N(C)C)cc2)CC1c1ccccc1 (centres undefined) | 5
Cn1c(=O)c2c(nc(NN=C3CCCC3)n2C)n(C)c1=O | 8
CC1CCN(S(=O)(=O)c2cc(C(=O)N3CCN(c4ncccn4)CC3)ccc2Br)CC1 | 15
O=c1c2nnn(-c3ccc(Cl)cc3)c2ncn1Cc1ccccn1 | 0
Cn1nc(C(F)(F)F)c(-c2ccccc2)c1NC(=O)c1cccnc1 | 20
Cc1cc(C)c[n+](C[n+]2cc(C)cc(C)c2)c1 | 30
Cc1ccccc1OCCOCCN1CCCCCC1 | 16

Rewritten in markdown: 6 of the compounds above.
| SMILES | Calb biofilm kill |
| --- | --- |
| O=[N+]([O-])c1cc(Br)c(OCc2nnc(-c3ccccc3)o2)c(Br)c1 | 10 |
| CSc1nc(-c2ccc(Cl)cc2)c(C#N)c(=O)n1C | 6 |
| CCOC(=O)C1CCN(C(=O)C(CC)c2ccccc2)CC1 (centres undefined) | 6 |
| CCOC(=O)C1C(=O)C=C(/C=C/c2ccc(N(C)C)cc2)CC1c1ccccc1 (centres undefined) | 5 |
| Cn1c(=O)c2c(nc(NN=C3CCCC3)n2C)n(C)c1=O | 8 |
| CC1CCN(S(=O)(=O)c2cc(C(=O)N3CCN(c4ncccn4)CC3)ccc2Br)CC1 | 15 |

(cont.)
SMILES | Calb biofilm kill
Cc1ccc(C(NC(=O)c2ccccc2)C(Cl)Cl)cc1 (centres undefined) | 13
CSC1=C(C#N)C(c2ccccc2Cl)C(C(=O)c2cccs2)C(O)(C(F)(F)F)N1 (centres undefined) | 19
O=C(COC(=O)c1cc2ccccc2oc1=O)Nc1ccc(F)cc1F | 11
Cc1ccc(NCC(=O)N/N=C/c2ccc(-c3cccc(C(F)(F)F)c3)o2)cc1 | 12
CC(C)CC(N=C1NC(C)(C)Cc2ccccc21)C(=O)O (centres undefined) | 8
COc1ccc2c(c1)c(CC(=O)Nc1cc(C)ccc1C)c(C)n2C(=O)c1ccc(Cl)cc1 | 6
O=C1C=Cc2ccccc2/C1=C/c1[nH]c(=O)[nH]c1O | 11
CC(CCc1ccccc1)NC(=O)CCCCCNc1nc(=S)[nH]c2ccccc12 (centres undefined) | 19
O=C(NCc1ccccc1)N1CCC(CO)(CCc2ccccc2)CC1 | 14
COc1ccccc1/C=C/CN1CCN(Cc2ccc(F)cc2)C(CCO)C1 (centres undefined) | 12
Cc1ccc(CSC2=NCCN2C(=O)c2ccc(S(=O)(=O)N(C)C)cc2)cc1 | -2
Cc1cccc(N2C(S)=C(C#N)C(=O)NC2c2cccs2)c1 (centres undefined) | -11
Cc1ccc(N2C(=O)Nc3ccccc3C2(O)C(=O)N2CCN(c3ccccn3)CC2)cc1C (centres undefined) | -1
Cn1c(SCC(=O)N/N=C/c2ccncc2)nc2ccccc21 | 16
O=C(O)c1cccc(NC(=S)NC(NC(=O)c2ccco2)C(Cl)(Cl)Cl)c1 (centres undefined) | 14
CCOC(=O)c1c(C)[nH]c(C)c1C(=O)COC(=O)c1ccc(OC)c(OC)c1 | 17
CO/C(N)=C(\C#N)N=Cc1ccccc1Cl | 15
O=C(Nc1ccccc1)Nc1ccc(Cl)c([N+](=O)[O-])c1 | 18
OC1(c2cccs2)CN(c2ccc(Cl)cc2)C2=[N+]1CCCS2 (centres undefined) | 8
CN(c1ccccc1)S(=O)(=O)c1cc(C(=O)OCC(N)=O)ccc1Cl | -12
COc1ccc(NC(C)=O)cc1S(=O)(=O)N1CCN(C/C=C/c2ccccc2)CC1 | 12
O=C(COC(=O)/C=C/c1ccc(S(=O)(=O)N2CCCCCC2)cc1)NCc1ccccc1Cl | 9

7 entries from above in another layout.
SMILES	Calb biofilm kill
Cc1ccc(NCC(=O)N/N=C/c2ccc(-c3cccc(C(F)(F)F)c3)o2)cc1	12
CC(C)CC(N=C1NC(C)(C)Cc2ccccc21)C(=O)O (centres undefined)	8
COc1ccc2c(c1)c(CC(=O)Nc1cc(C)ccc1C)c(C)n2C(=O)c1ccc(Cl)cc1	6
O=C1C=Cc2ccccc2/C1=C/c1[nH]c(=O)[nH]c1O	11
CC(CCc1ccccc1)NC(=O)CCCCCNc1nc(=S)[nH]c2ccccc12 (centres undefined)	19
O=C(NCc1ccccc1)N1CCC(CO)(CCc2ccccc2)CC1	14
COc1ccccc1/C=C/CN1CCN(Cc2ccc(F)cc2)C(CCO)C1 (centres undefined)	12

An excerpt from above in order of formula weight, rising:
SMILES | Calb biofilm kill
CO/C(N)=C(\C#N)N=Cc1ccccc1Cl | 15
CN(c1ccccc1)S(=O)(=O)c1cc(C(=O)OCC(N)=O)ccc1Cl | -12
CCOC(=O)c1c(C)[nH]c(C)c1C(=O)COC(=O)c1ccc(OC)c(OC)c1 | 17

An excerpt, so the mix of outcomes need not match the whole.
